Screens deposited in PubChem by Broad Institute.
Vaccinia stage: blocks a specific stage of Vaccinia orthopoxvirus infection. Vaccinia-infected cells, mCherry/Venus stage reporter fluorescence; hits give low values; some inactives read as strong as hits. activity change (mCherry), % (no concentration beside the values). 89,000 compounds, 0.01% hits. AID 1053133;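 active means mCherry past -33% and 40 or more points under the early reporter, replicates agreeing; inconclusive means past -33% without that gap or agreement; tested in A549 cells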;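 further: scaled between vehicle wells and reference inhibitor wells; 23 nL library stock went into each well; one replicate is shown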
Vaccinia stage Venus: recorded beside Vaccinia stage, whose call it bears; activity change (Venus), %; measured here: Venus reporter, other viral stage;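 negative = less Venus signal; first of two replicates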
* marks the source's active call; other numbers are inactive results; ? = inconclusive; . = no result given. An excerpt. The share of hits here may be higher or lower than overall.

structure,Vaccinia stage,Vaccinia stage Venus
C[C@@H]1CCCCO[C@H](CN(C)Cc2ccc3c(c2)OCO3)[C@@H](C)CN([C@@H](C)CO)C(=O)c2cc(NC(=O)c3ccccc3)ccc2O1,?,.
CO[C@H]1CN(C)C(=O)c2ccc(NS(=O)(=O)c3cn(C)cn3)cc2OC[C@@H](C)N(CC2CC2)C[C@H]1C,8.5,6.3
O=C(Nc1cccc(F)c1)N1CC(=O)N2[C@H](CO)[C@H](c3ccc(-c4ccccc4)cc3)[C@@H]2C1,?,.
CC(C)CC#Cc1ccc2c(c1)O[C@@H](CN(C)Cc1cncnc1)[C@H](C)CN([C@@H](C)CO)S2(=O)=O,?,.
O=C(NC1CCCCC1)[C@@H]1[C@@H](CO)[C@@H]2Cn3c(cccc3=O)[C@H]1N2CC1CCCC1,0.4,2.8
Cc1noc(C)c1NC(=O)Nc1cccc2c1O[C@@H](CN(C)Cc1ccccc1)[C@@H](C)CN([C@H](C)CO)C2=O,1.2,-0.9
COc1ccc2c3c([nH]c2c1)[C@H](CO)N(C(=O)CC1CC1)CC31CCN(C(=O)CC2CC2)CC1,-0.5,-6.1
C[C@H](CO)N1C[C@H](C)[C@H](CN(C)C(=O)Nc2ccc(C(F)(F)F)cc2)Oc2ccc(NC(=O)Nc3cccc4ccccc34)cc2CC1=O,-8.3,-6.5
Cc1ccc(-c2ccc3c(c2)O[C@@H](CN(C)Cc2ccc(C(=O)O)cc2)[C@@H](C)CN([C@@H](C)CO)S3(=O)=O)cc1,1.6,1.9
O=S(=O)(NC[C@H]1[C@@H](c2ccccc2)[C@H](CO)N1CC1CC1)c1ccccc1,0.4,6.6
C[C@@H]1CN([C@H](C)CO)C(=O)c2cc(NC(=O)CCC(F)(F)F)ccc2O[C@@H](C)CCCCO[C@H]1CN(C)Cc1ccc(Cl)c(Cl)c1,?,.
CN1C(=O)c2cc(NC(=O)C3CC3)ccc2OC[C@@H]2O[C@H](CC(=O)NCCN3CCCC3)CC[C@@H]21,-1.4,-1.3
COc1ccc(S(=O)(=O)N[C@@H]2CC[C@@H](CC(=O)N3CCN(c4ccccc4)CC3)O[C@@H]2CO)cc1,2.7,5.7
CC(C)CC#Cc1cnc2c(c1)C(=O)N([C@@H](C)CO)C[C@@H](C)[C@H](CN(C)C(=O)c1cccnc1)O2,11.0,5.7
C[C@H](CO)N1C[C@H](C)[C@H](CN(C)CC2CCCCC2)Oc2ccc(NC(=O)Nc3ccc(F)cc3)cc2CC1=O,?,.
COC(=O)[C@]1(Cc2ccccc2)N=C(c2ccc(OCCCO)cc2)O[C@@H]1c1ccccc1CN=[N+]=[N-],?,.
C[C@H](CO)N1C[C@H](C)[C@@H](CN(C)C(=O)c2cc(Cl)cc(Cl)c2)OCc2ccccc2-c2ccccc2C1=O,-19.8,-10.3
O=C(C[C@@H]1CC[C@@H](NS(=O)(=O)c2ccc(F)cc2)[C@@H](CO)O1)NC1CCC1,1.5,5.8
CN(C)C(=O)c1ccc(-c2ccc3c(c2)[C@@H]2[C@@H](CCN2Cc2ccc4c(c2)OCO4)[C@@H](CO)N3)cc1,-26.8,-3.2
O=C(C1CCOCC1)N1C[C@@H]2N[C@H](C1)C2c1ccc(-c2cccc(F)c2)cc1 (stereo partly drawn),-30.8,-26.1

No new results follow: three of the compounds above.
structure,Vaccinia stage,Vaccinia stage Venus
O=C(C[C@@H]1CC[C@@H](NS(=O)(=O)c2ccc(F)cc2)[C@@H](CO)O1)NC1CCC1,1.5,5.8
CN(C)C(=O)c1ccc(-c2ccc3c(c2)[C@@H]2[C@@H](CCN2Cc2ccc4c(c2)OCO4)[C@@H](CO)N3)cc1,-26.8,-3.2
O=C(C1CCOCC1)N1C[C@@H]2N[C@H](C1)C2c1ccc(-c2cccc(F)c2)cc1 (stereo partly drawn),-30.8,-26.1

(continued)
structure,Vaccinia stage,Vaccinia stage Venus
C[C@H]1CN([C@@H](C)CO)C(=O)c2cc(N(C)C)ccc2O[C@H]1CN(C)S(=O)(=O)c1cccs1,-1.9,5.1
C[C@@H]1CCCCO[C@H](CN(C)C(=O)C2CCCCC2)[C@@H](C)CN([C@H](C)CO)C(=O)c2cc(NC(=O)CCC(F)(F)F)ccc2O1,7.2,5.4
CN1CCN(C(=O)C[C@@H]2C=C[C@@H](NS(=O)(=O)c3cccc(F)c3)[C@@H](CO)O2)CC1,-11.0,-8.6
C[C@H](CO)N1C[C@H](C)[C@@H](CN(C)Cc2ccc(F)cc2)Oc2ncc(Br)cc2C1=O,6.2,-0.5
C[C@@H]1CN([C@H](C)CO)C(=O)c2c(c3ccccc3n2C)-c2ccccc2CO[C@@H]1CN(C)C(=O)Nc1ccc(F)cc1,-27.0,-21.5
Cc1ccc(S(=O)(=O)N[C@H]2C=C[C@@H](CC(=O)NCCCN(C)C)O[C@@H]2CO)cc1,2.5,-0.5
O=C(c1ccc2c(c1)OCO2)N1C[C@@H]2[C@H](c3ccccc31)[C@@H](CO)N2Cc1cccnc1,-1.2,0.5
Cc1ccc(-c2ccc3c(c2)O[C@@H](CN(C)C(=O)Nc2ccccc2)[C@@H](C)CN([C@@H](C)CO)S3(=O)=O)cc1,?,.
CN1C(=O)c2cc(NC(=O)C3CC3)ccc2OC[C@H]2O[C@@H](CC(=O)NCc3ccccc3F)CC[C@H]21,16.2,2.0
COc1ccc2c3c([nH]c2c1)[C@H](CO)N(C(=O)c1ccccc1)CC31CN(C(=O)NC(C)C)C1,15.2,3.1
C[C@@H]1CN([C@@H](C)CO)C(=O)c2cc(N(C)C)ccc2O[C@@H]1CN(C)S(=O)(=O)c1cn(C)cn1,13.1,5.8
Cc1ccc(S(=O)(=O)N(C)C[C@H]2Oc3ccc(NS(=O)(=O)c4c(C)noc4C)cc3CC(=O)N([C@H](C)CO)C[C@H]2C)cc1,10.5,2.0
CN(C)C(=O)C[C@@H]1CC[C@H](NC(=O)Nc2cccc(F)c2)[C@H](CO)O1,4.9,2.9
CCCC#Cc1ccc([C@@H]2[C@@H](CO)N(S(=O)(=O)c3cccc(F)c3)[C@H]2C#N)cc1,?,.
C[C@@H]1CCCCO[C@@H](CN(C)C)[C@H](C)CN([C@H](C)CO)C(=O)c2cc(NC(=O)CCC(F)(F)F)ccc2O1,-15.2,1.4
CCC(=O)NC[C@@H]1[C@@H](c2ccc(C3=CCCC3)cc2)[C@H](CO)N1C(C)=O,6.1,1.7
CCCC#Cc1ccc([C@@H]2[C@@H](C#N)N(C(=O)C3CCC3)[C@H]2CO)cc1,-16.5,-8.2
Cc1noc(C)c1S(=O)(=O)Nc1ccc2c(c1)CC(=O)N([C@@H](C)CO)C[C@@H](C)[C@@H](CN(C)C(=O)Nc1ccc(F)cc1)O2,26.7,26.7
C[C@@H]1CN([C@@H](C)CO)C(=O)Cc2cc(NS(=O)(=O)c3cccs3)ccc2O[C@@H]1CN(C)Cc1ccc(C(F)(F)F)cc1,-0.5,-8.7
C[C@H]1CN([C@@H](C)CO)C(=O)CCCn2cc(nn2)CO[C@@H]1CN(C)Cc1ccccc1,11.8,12.5

Compounds shown so far that contain a thiophene ring, fused or not, in the order listed:
structure,Vaccinia stage,Vaccinia stage Venus
C[C@H]1CN([C@@H](C)CO)C(=O)c2cc(N(C)C)ccc2O[C@H]1CN(C)S(=O)(=O)c1cccs1,-1.9,5.1
C[C@@H]1CN([C@@H](C)CO)C(=O)Cc2cc(NS(=O)(=O)c3cccs3)ccc2O[C@@H]1CN(C)Cc1ccc(C(F)(F)F)cc1,-0.5,-8.7

The results go on:
structure,Vaccinia stage,Vaccinia stage Venus
CN(C)CC(=O)Nc1ccc2c(c1)[C@H]1C[C@@H](CC(=O)NCCc3ccccc3)O[C@@H](CO)[C@H]1O2,11.6,9.3
N#C[C@H]1[C@@H](c2ccccc2)[C@H](CO)N1C(=O)CN1CCOCC1,4.4,5.4
C[C@H]1CN([C@@H](C)CO)C(=O)c2cc(NC(=O)Nc3ccc4c(c3)OCO4)ccc2O[C@H]1CN(C)Cc1ccc(C(=O)O)cc1,1.6,-0.2
COc1ccc(NC(=O)N(C)C[C@@H]2Oc3ccc(NC(=O)CCCCCC(=O)Nc4ccccc4N)cc3C(=O)N([C@@H](C)CO)C[C@@H]2C)cc1,-10.8,-11.0
C[C@H]1CN([C@@H](C)CO)C(=O)c2cccc(NC(=O)C3CC3)c2O[C@@H]1CN(C)S(C)(=O)=O,-2.1,1.6
C[C@H](NC(=O)C[C@@H]1CC[C@H](NC(=O)CN2CCOCC2)[C@H](CO)O1)c1ccccc1,-3.2,2.6
COc1cccc(S(=O)(=O)Nc2ccc3c(c2)[C@@H]2C[C@H](CC(=O)N(C)C)O[C@@H](CO)[C@@H]2O3)c1,3.0,-8.0
C[C@@H]1CN([C@@H](C)CO)C(=O)Cc2cc(NC(=O)CCN3CCOCC3)ccc2O[C@H]1CN(C)S(=O)(=O)c1cn(C)cn1,15.8,10.0
COc1ccc(NC(=O)Nc2cccc3c2O[C@H](CN(C)C(=O)Nc2ccc(F)cc2)[C@H](C)CN([C@@H](C)CO)C3=O)cc1,12.7,4.9
CO[C@H]1CN(C)C(=O)c2cccc(C#N)c2OCC[C@@H]2CC[C@@H](OC)[C@@H](CN(C)C(=O)[C@H]1C)O2,18.1,14.0
CCCNC(=O)N1C[C@H](C)[C@H](OC)CN(C)C(=O)c2ccc(NS(=O)(=O)CC(F)(F)F)cc2OC[C@@H]1C,16.0,30.2
C[C@H](CO)N1C[C@H](C)[C@H](CN(C)Cc2ccc(Oc3ccccc3)cc2)Oc2ccc(NS(=O)(=O)c3ccc(Cl)cc3)cc2CC1=O,-26.3,-24.1
C[C@@H]1CCCCO[C@H](CN(C)C)[C@H](C)CN([C@@H](C)CO)C(=O)c2cc(NC(=O)Nc3cccc4ccccc34)ccc2O1,-22.7,-3.3
CNC[C@@H]1Oc2ccc(NC(=O)Cn3cnnn3)cc2C(=O)N([C@@H](C)CO)C[C@@H]1C,9.1,7.5
C[C@H](CO)N1C[C@H](C)[C@H](CN(C)Cc2ccc(Cl)c(Cl)c2)Oc2ccc(NC(=O)Nc3ccc(F)cc3)cc2C1=O,3.8,4.0
O=S(=O)(c1ccc(F)cc1)N1CCCCN2[C@H](CO)[C@H](c3ccc(-c4ccccc4)cc3)[C@H]2C1,?,.
O=C(C1CC1)N1[C@@H](CO)[C@@H](c2ccccc2)C12CN(Cc1cccc(Cl)c1)C2,-1.4,-6.1
C/C=C/c1ccc([C@H]2[C@@H](CO)N3CCCCN(C(=O)Cc4ccncc4)C[C@H]23)cc1,-25.1,-24.6
Cc1ccc(S(=O)(=O)Nc2ccc3c(c2)CC(=O)N([C@@H](C)CO)C[C@H](C)[C@H](CN(C)C(=O)NC2CCCCC2)O3)cc1,1.0,-2.0
COc1cccc(C#Cc2cnc3c(c2)C(=O)N([C@H](C)CO)C[C@H](C)[C@@H](CN(C)C(=O)C2CCC2)O3)c1,4.1,1.4

structure,Vaccinia stage,Vaccinia stage Venus
C[C@@H]1CN([C@@H](C)CO)C(=O)c2cc(NS(=O)(=O)c3ccccc3)ccc2O[C@H]1CN(C)Cc1ccc2c(c1)OCO2,-3.6,-3.0
COc1ccc(NC(=O)Nc2cccc3c2O[C@@H](CN(C)S(=O)(=O)c2ccccc2)[C@H](C)CN([C@H](C)CO)C3=O)cc1,-6.5,0.4
CN1C(=O)c2cc(NC(=O)Cc3cccs3)ccc2OC[C@@H]2O[C@H](CC(=O)NCCc3ccncc3)CC[C@H]21,6.0,10.3
C[C@@H]1CCCCO[C@@H](CN(C)C(=O)Nc2ccc3c(c2)OCO3)[C@H](C)CN([C@H](C)CO)C(=O)c2cc(NC(=O)C3CCCCC3)ccc2O1,-19.6,-6.3
CS(=O)(=O)Nc1ccc2c(c1)[C@H]1C[C@H](CC(=O)NCc3cc(F)ccc3F)O[C@@H](CO)[C@H]1O2,-1.6,-0.3
C[C@@H]1CN([C@H](C)CO)C(=O)c2cc(NC(=O)CCCN(C)C)ccc2O[C@@H]1CN(C)S(C)(=O)=O,10.4,-7.1
CNC[C@@H]1Oc2ncc(-c3cncnc3)cc2C(=O)N([C@H](C)CO)C[C@@H]1C,3.8,1.3
CO[C@H]1CN(C)C(=O)c2cc(NC(=O)C3CC3)ccc2OC[C@H](C)N(Cc2cccc(F)c2)C[C@H]1C,-17.7,-5.8
CN(C)C(=O)C[C@@H]1CC[C@@H]2[C@H](COc3ccc(NC(=O)NCc4ccccc4)cc3C(=O)N2C)O1,0.5,-3.6
COc1ccccc1C#Cc1ccc([C@H]2[C@@H](CO)N3CCCCN(C(=O)C4CC4)C[C@@H]23)cc1,-15.6,-17.8
COc1ccc(-c2cnc3c(c2)C(=O)N([C@@H](C)CO)C[C@@H](C)[C@@H](CN(C)Cc2ccccc2)O3)cc1,-15.8,-18.0
COc1ccc2c3c([nH]c2c1)[C@@H](CO)N(Cc1nccs1)CC31CCN(C(=O)C2CCOCC2)CC1,23.4,9.5
C[C@@H]1CN([C@@H](C)CO)C(=O)c2cccc(NC(=O)c3ccncc3)c2O[C@@H]1CN(C)S(=O)(=O)c1ccc(F)cc1,0.6,2.3
COc1ccc(S(=O)(=O)N(C)C[C@H]2OCCCC[C@H](C)Oc3ccc(NS(=O)(=O)c4ccccc4)cc3C(=O)N([C@H](C)CO)C[C@H]2C)cc1,-11.7,-4.6
COCc1cn(CC[C@H]2CC[C@H](NC(=O)Nc3c(C)noc3C)[C@@H](CO)O2)nn1,8.7,12.5
CO[C@@H]1CC[C@H]2CCN(C)C(=O)[C@H](C)[C@H](OC)CN(C)C(=O)c3cc(C#N)ccc3OC[C@H]1O2,11.7,3.2
